IkB sig inh: inhibitors of IkB signaling in ABC-DLBCL cells. Potency, µM (top dose mostly 57.1 µM), for the others: top-dose IkBa stabilization activation. 110,000 tested, 0.04% active. ABC-DLBCL IkBa-CBG/CBR dual luciferase ratio, 4 h; response scale: scaled: untreated 0%, proteasome inhibitor 100%; active = well fitted curve in the direction sought with a large enough effect in the signal ratio, not every such curve was filed as active; inconclusive = small, poorly fitted or top-dose-only effect, or a change in a side signal; the % refers to the signal ratio;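 also: the direction sought is a rising ratio; 0% = basal untreated cells and 100% = reference inhibitor full response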
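Curves were fitted separately to fusion (green), unfused (red) and ratio luminescence, then classed by r2, magnitude and activity. Cells: OCI-Ly3, 4 h compound plus doxycycline at 37C; 10 uM MG-132 defined full response.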
Imprint erasure: inducers of genomic imprint erasure in mouse ES cells; mouse ES Peg3-LacZ reporter, beta-gal luminescence, 40 h; AID 1948; Potency, µM (series often up to 60.7 µM), for inactives: at the top dose activity change, positive = activation, actives largely listed as activators; 110,000 tested, 0.02% active; active = well fitted activation curve with a large enough effect; inconclusive = small, poorly fitted or top-dose-only effect; inactive = no such curve, though single readings can be large or run the other way;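 also: 0% = negative control wells on the plate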
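Each well holds 300 Peg3LacZ-Neo (maternal) female ES cells incubated 40 h at 37C, 5% CO2. LacZ is measured by BetaGlo luminescence, with AC50 and maximum efficacy derived from dose-response curves.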
* = called active by the depositor; ? = inconclusive; . = not tested or not shown; & = joins results of further samples; [ ] = remark or other dose. Potency is read from the fitted curve at half-maximal effect. This is a subset; most or all hits stand in other tables.

SMILES	IkB sig inh	Imprint erasure
NC1CC1c1ccccc1 (stereo not drawn)	.	1.2%
CN(C)C1C(=O)C(C(N)=O)=C(O)[C@@]2(O)C(=O)C3=C(O)c4c(O)cccc4[C@@](C)(O)C3CC12 (stereo partly drawn)	.	-26.1%
CC(N)[C@@H](O)c1ccccc1 (stereo partly drawn)	.	-15.1%
CC1/C=C/C=C/CC/C=C/C=C/C=C/C=C/C(OC2OC(C)C(O)C(N)C2O)CC2O[C@](O)(CC(O)C(O)CCC(O)CC(O)CC(O)CC(=O)OC(C)C(C)C1O)CC(O)C2C(=O)O (stereo partly drawn)	.	-22.0%
C#CCN(C)C(C)Cc1ccccc1 (stereo not drawn)	.	-8.6%
CN1CCC23CCCC[C@H]2C1Cc1ccc(O)cc13 (stereo partly drawn)	.	-14.5%
COc1ccc2cc1Oc1ccc(cc1)C[C@H]1c3cc(c(OC)cc3CCN1C)Oc1c(OC)c(OC)cc3c1[C@H](C2)N(C)CC3	.	-31.9%[inhibitor]
COC(=O)C1=CCCN(C)C1	0.0%[25.6 µM]	-6.3%
COc1cc2c(c(OC)c1OC)-c1ccc(OC)c(=O)cc1[C@@H](NC(C)=O)CC2	?	-21.3%&-19.4%&-18.0%&-21.3%&-14.9%
OC[P+](CO)(CO)CO	6.0%	0.6%
CC(C)[C@]12CC(=O)[C@H](C)[C@H]1C2	1.3%	18.8%
CC(C)(C)OO	-1.4%&0.5%	-1.7%&-3.7%
COC(C)(C)C	0.4%	-0.2%
COP(N)(=O)SC (stereo not drawn)	.	-6.3%
Nc1ccc(Sc2ccc(N)cc2)cc1	2.1%	-3.9%
C=C(C)[C@H]1Cc2c(ccc3c2O[C@@H]2COc4cc(OC)c(OC)cc4[C@@H]2C3=O)O1	?	-24.8%&-14.9%
Cc1cc(Cl)ccc1OC(C)C(=O)O (stereo not drawn)	3.2%	7.5%
O=C(O)CCl	0.0%	-4.8%
COc1cc2c(c(OC)c1OC)-c1ccc(OC)c(=O)cc1C(NC(C)=O)CC2 (stereo not drawn)	.	-36.0%[inhibitor]
Cc1cccc([C@H](C)c2cnc[nH]2)c1C	0.3%	-9.9%
O=CC=O	0.7%	-2.9%
O=C1NC(=S)NC(=O)C1=Cc1cccc2cc3ccccc3cc12	?	-13.4%[10.9 µM]
O=c1[nH]c2c(c(=O)n1C1CCCCC1)CCC2	0.3%	-5.7%
C[C@]12CC[C@H](O)CC1=CCC1C2CC[C@]2(C)C(=O)CC[C@@H]12 (stereo partly drawn)	.	-17.2%&-5.4%&-27.4%
CN(C)C(=O)Cl	-0.1%	1.8%

One compound at a time (already shown):
CC(N)[C@@H](O)c1ccccc1 (stereo partly drawn) reads IkB sig inh = .; Imprint erasure = -15.1%
Cc1cccc([C@H](C)c2cnc[nH]2)c1C reads IkB sig inh = 0.3%; Imprint erasure = -9.9%

Part of the list above in order of molecular weight, lowest first.
SMILES	IkB sig inh	Imprint erasure
O=CC=O	0.7%	-2.9%
COC(C)(C)C	0.4%	-0.2%
CC(C)(C)OO	-1.4%&0.5%	-1.7%&-3.7%
CN(C)C(=O)Cl	-0.1%	1.8%
NC1CC1c1ccccc1 (stereo not drawn)	.	1.2%
CC(N)[C@@H](O)c1ccccc1 (stereo partly drawn)	.	-15.1%
COC(=O)C1=CCCN(C)C1	0.0%[25.6 µM]	-6.3%
C#CCN(C)C(C)Cc1ccccc1 (stereo not drawn)	.	-8.6%
Cc1cccc([C@H](C)c2cnc[nH]2)c1C	0.3%	-9.9%
Cc1cc(Cl)ccc1OC(C)C(=O)O (stereo not drawn)	3.2%	7.5%
Nc1ccc(Sc2ccc(N)cc2)cc1	2.1%	-3.9%
O=c1[nH]c2c(c(=O)n1C1CCCCC1)CCC2	0.3%	-5.7%
CN1CCC23CCCC[C@H]2C1Cc1ccc(O)cc13 (stereo partly drawn)	.	-14.5%
C[C@]12CC[C@H](O)CC1=CCC1C2CC[C@]2(C)C(=O)CC[C@@H]12 (stereo partly drawn)	.	-17.2%&-5.4%&-27.4%
C=C(C)[C@H]1Cc2c(ccc3c2O[C@@H]2COc4cc(OC)c(OC)cc4[C@@H]2C3=O)O1	?	-24.8%&-14.9%
COc1cc2c(c(OC)c1OC)-c1ccc(OC)c(=O)cc1C(NC(C)=O)CC2 (stereo not drawn)	.	-36.0%[inhibitor]
CN(C)C1C(=O)C(C(N)=O)=C(O)[C@@]2(O)C(=O)C3=C(O)c4c(O)cccc4[C@@](C)(O)C3CC12 (stereo partly drawn)	.	-26.1%
COc1ccc2cc1Oc1ccc(cc1)C[C@H]1c3cc(c(OC)cc3CCN1C)Oc1c(OC)c(OC)cc3c1[C@H](C2)N(C)CC3	.	-31.9%[inhibitor]
CC1/C=C/C=C/CC/C=C/C=C/C=C/C=C/C(OC2OC(C)C(O)C(N)C2O)CC2O[C@](O)(CC(O)C(O)CCC(O)CC(O)CC(O)CC(=O)OC(C)C(C)C1O)CC(O)C2C(=O)O (stereo partly drawn)	.	-22.0%

Remaining list, next part.
SMILES	IkB sig inh	Imprint erasure
C[C@H]1CC[C@@H]2[C@@H](C)[C@H]3[C@H](C[C@H]4[C@@H]5CC=C6CC(O[C@@H]7O[C@H](CO)[C@H](O)[C@H](O[C@@H]8O[C@H](CO)[C@@H](O)[C@H](O)[C@H]8O)[C@H]7O[C@H]7O[C@@H](C)[C@H](O)[C@@H](O)[C@H]7O)CC[C@]6(C)[C@H]5CC[C@]34C)N2C1 (stereo partly drawn)	-2.0%	-14.3%
CN[C@@H](C)[C@H]1CC[C@@H](N)[C@@H](O[C@@H]2[C@@H](O)[C@@H](O[C@H]3OC[C@@](C)(O)[C@@H](NC)[C@@H]3O)[C@H](N)C[C@@H]2N)O1 (tested in a mixture with another compound)	-0.3%[25.6 µM]	-3.7%[16.8 µM]
Clc1cccc(Cl)c1	-0.2%	7.7%
NCC(CC(=O)O)c1ccc(Cl)cc1 (stereo not drawn)	2.2%	?
CC(C)N(CCC(C(N)=O)(c1ccccc1)c1ccccn1)C(C)C (stereo not drawn)	.	6.7%&20.4%&-8.4%
Oc1cccc2cccnc12	0.4%[11.4 µM]	12.2%[10.9 µM]
C[N+]1([O-])[C@H]2CC[C@H]1CC(OC(=O)[C@@H](CO)c1ccccc1)C2 (stereo partly drawn)	2.7%[11.4 µM]	-19.4%[10.9 µM]
Cc1ccc(S(=O)(=O)N[C@@H](CCCCN)C(=O)CCl)cc1	?	-14.7%
Clc1ccc([C@@H](OCCN2CCCCC2)c2ccccc2)cc1	1.8%[25.6 µM]	-17.2%[16.8 µM]
Clc1cccc2ccccc12	-0.6%	0.9%
C=CC(=O)OCC	-0.7%	6.7%
CC[C@]1(C2=NCCN2)Cc2ccccc2O1	0.2%&1.1%	-16.3%
CCOC(=O)c1ccccc1C(=O)OCC	-2.1%&0.1%	5.7%&-1.6%
CC(Cc1ccc(O)cc1)NCC(O)c1cc(O)cc(O)c1 (stereo not drawn)	.	-7.1%&4.8%
ClC(Cl)c1ccccc1	-0.5%	2.2%
O=C(NC(=O)c1c(F)cccc1F)Nc1ccc(Cl)cc1	.	-9.4%
Cc1ncsc1CCCl	-0.5%	-11.9%
CCC#N	2.3%	-1.1%
CC(C)CC(C)Nc1ccc(Nc2ccccc2)cc1 (stereo not drawn)	?	-33.3%[inhibitor]
Clc1ccc(CS[C@@H](Cn2ccnc2)c2ccc(Cl)cc2Cl)cc1	1.1%[25.6 µM]	-16.6%[16.8 µM]

Assay outcomes (PubChem)
